# RecA splice inh – Mtb RecA intein splicing inhibitors, primary screen, biochemical, fluorescence, HTS | Protein RecA (Mycobacterium tuberculosis (strain ATCC 25618 / H37Rv)), P9WHJ3 | cell-free RecA intein splicing | inhibition, %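 (about 9 µM by stock and volumes)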 | hit rate 0.75% among 290,000; in the data active = inhibition above about 30%; inconclusive = no clear call, values can overlap the other calls;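 also: 0% = vehicle wells and 100% = reference inhibitor control wells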
# Target sequence (P9WHJ3 whole entry, looked up, canonical isoform): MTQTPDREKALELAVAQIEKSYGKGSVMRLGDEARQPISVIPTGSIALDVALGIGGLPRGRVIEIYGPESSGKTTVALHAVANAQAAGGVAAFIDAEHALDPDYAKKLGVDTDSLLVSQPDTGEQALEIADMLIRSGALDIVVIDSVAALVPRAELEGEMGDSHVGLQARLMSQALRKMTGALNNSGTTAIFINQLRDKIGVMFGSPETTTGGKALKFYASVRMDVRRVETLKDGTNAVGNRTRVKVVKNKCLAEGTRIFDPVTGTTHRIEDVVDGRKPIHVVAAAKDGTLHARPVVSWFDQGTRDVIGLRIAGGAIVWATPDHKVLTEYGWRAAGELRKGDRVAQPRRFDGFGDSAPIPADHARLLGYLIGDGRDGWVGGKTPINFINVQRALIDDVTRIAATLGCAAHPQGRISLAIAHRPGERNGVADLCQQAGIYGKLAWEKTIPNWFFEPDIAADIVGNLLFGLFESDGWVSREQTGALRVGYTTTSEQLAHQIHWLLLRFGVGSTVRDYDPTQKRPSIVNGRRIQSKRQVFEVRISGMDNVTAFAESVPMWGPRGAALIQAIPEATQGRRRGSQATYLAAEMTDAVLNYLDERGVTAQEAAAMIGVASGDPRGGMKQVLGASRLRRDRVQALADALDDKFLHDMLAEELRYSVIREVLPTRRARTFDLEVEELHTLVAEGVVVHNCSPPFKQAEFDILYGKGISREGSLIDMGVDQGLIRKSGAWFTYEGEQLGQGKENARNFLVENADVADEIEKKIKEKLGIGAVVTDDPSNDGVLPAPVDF
# YopH inh – YopH tyrosine phosphatase inhibitors, primary screen, biochemical, fluorescence Ex485/Em525 | YopH tyrosine phosphatase [Yersinia enterocolitica] | inhibition, %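 (about 10 µM by stock and volumes)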 | hit rate 0.16% among 140,000 | AID 898, 2007;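 active = inhibition of 50% or more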;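 also: controls were vehicle for no effect and minimum signal wells for full effect; inactives centre near -20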
# Mtb bLac sens – beta-lactam sensitization of Mtb H37Rv, H37Rv; hit rate 0.27% among 330,000; AID 434955, 2010; M. tuberculosis H37Rv growth with meropenem, percent inhibition; hits of this screen are not shown here; inhibition, % at 25 µM;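 active = about 74% or more and at least 40 points above the plate without the antibiotic, then above 30% in a dose series; inconclusive = first-round hits that could not be retested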;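 also: growth measured after seven days incubation then overnight dye step; 0% = bacteria only wells and 100% = bacteria with antibiotic; twin plates without the antibiotic show which effects depend on it; some results filed as inactive read as strong as hits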
# Mtb H37Rv – M. tuberculosis H37Rv growth inhibitors, H37Rv strain (AID 1626); inhibition, % at 10 µM, or IC50 in µM where a hit was titrated; M. tuberculosis H37Rv growth inhibition; higher % means a stronger effect; hit rate 0.95% among 220,000;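 active = confirmed in a dose series; inconclusive = inhibition above 80% but not taken into the dose series; inactive = below 80% or under 30% at every dose of the series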;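 also: bacteria incubated seven days before Alamar blue readout; 0% = bacteria only wells and 100% = bacteria with antibiotic wells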
# Arbovirus anti – antivirals against arbovirus infection, primary screen, cell-based, full library, 10K replicate subset; arbovirus infection cell-based antiviral screen; hit rate 0.37% among 200,000; inhibition, % at 10 µM;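 active = inhibition from about 30%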;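 also: bluetongue infection of BSR cells; cell survival read as ATP light after 72 h; 0% = infected wells without compound and 100% = uninfected wells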
# Arbovirus anti repeat – further read-out of Arbovirus anti, marked with its call; inhibition, %; measured here: 10K subset replicate screen; many hits read low in the repeat;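 first of two repeat runs on a subset; 0% = infected and 100% = uninfected wells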
# Starred values were filed as active, the others as inactive; i = inactive; ? = inconclusive; . = not tested or not shown. Not all compounds are listed. The share of hits here may be higher or lower than overall.
SMILES,RecA splice inh,YopH inh,Mtb bLac sens,Mtb H37Rv,Arbovirus anti,others
CCN(CC)C(=O)c1cc2c(=O)n3ccccc3nc2s1,-65,-20,-2,-3%,-3,Arbovirus anti repeat=0
CC1(C(=O)O)CCC(C(=O)Nc2ccccc2)C1(C)C (stereo not drawn),-2.6,2,-7,-5%,3,
Cc1cc2nc(SCCOC(=O)Nc3ccccc3)nc(C)c2cc1C,-5.3,-31,-4,-3%,14,
CN(C)/C=N/c1nc2nccc(-c3cccs3)n2n1,-19,.,-4,-8%,1,
CCn1c(SCC(=O)Nc2ccc(N(C)C)cc2)nnc1C1CC1,0.7,.,4,.,.,
Cc1c(C(=O)NC2CCCCC2C)oc2ccccc12 (stereo not drawn),2.7,.,10,.,.,
O=C(Cn1nc(-c2ccccc2)ccc1=O)Nc1ccc(NC(=O)c2ccccn2)cc1,.,.,10,2%,-4,
CCCCCCn1c(=O)c(Cc2ccccc2)c(O)c2ccccc21,2.3,.,-2,-10%,10,
CCOC(=O)N1CCN(C2CC(=O)N(c3ccc(C)cc3)C2=O)CC1 (stereo not drawn),-3.2,-6,-2,-11%,4,
COc1ccc(C(=O)n2c(C)c(CCO)c(=O)n2C)cc1,9.2,.,-3,6%,10,
CCN(CC(=O)Nc1ccccc1C(F)(F)F)C(=O)CN1C(=O)NC(C)(c2ccccc2)C1=O (stereo not drawn),3.6,.,-5,.,.,
Nc1nc(SCC(=O)NCc2ccccc2)n[nH]1,-2.0,-23,-15,-5%,2,
CC(C)(C)CC(C)(C)NC(=O)c1ccccc1,-2.1,.,-5,0%,8,
Cc1ccc(S(=O)(=O)N2CCN(C(=O)c3cccc(F)c3)CC2)cc1,-0.5,-35,-9,-1%,1,
COc1cccc(/C=N/NC(=O)CSc2ccccc2C)c1OC,0.8,-27,1,0%,-6,
COc1ccc(NC(=O)COc2cccc(C(F)(F)F)c2)cn1,0.0,.,1,.,.,
O=S(=O)(NCCN1CCOCC1)c1cccs1,-0.1,.,1,2%,1,
NC(=O)[C@@H]1CC2(CC(c3cccc(NC(=O)[C@H]4CCC(=O)N4)c3)=NO2)CN1C(=O)c1ccc(Cl)cc1 (stereo partly drawn),-0.6,.,-8,-11%,.,
O=C(N1CCOCC1)N1CCN(c2ccc(F)cc2)CC1,-4.0,-14,-7,-7%,2,
Cn1nnnc1SCC(=O)N1c2ccccc2Sc2ccc(Cl)cc21,.,-16,-4,0%,0,

# 5 records picked at random from the list so far, as already listed:
SMILES,RecA splice inh,YopH inh,Mtb bLac sens,Mtb H37Rv,Arbovirus anti,others
O=C(N1CCOCC1)N1CCN(c2ccc(F)cc2)CC1,-4.0,-14,-7,-7%,2,
COc1cccc(/C=N/NC(=O)CSc2ccccc2C)c1OC,0.8,-27,1,0%,-6,
O=S(=O)(NCCN1CCOCC1)c1cccs1,-0.1,.,1,2%,1,
Cc1ccc(S(=O)(=O)N2CCN(C(=O)c3cccc(F)c3)CC2)cc1,-0.5,-35,-9,-1%,1,
Cn1nnnc1SCC(=O)N1c2ccccc2Sc2ccc(Cl)cc21,.,-16,-4,0%,0,

# (next part)
SMILES,RecA splice inh,YopH inh,Mtb bLac sens,Mtb H37Rv,Arbovirus anti,others
COc1ccc(OC)c(N=C(N)N=C(N)N)c1,-0.6,.,1,4%,3,
COc1ccc(/C=N/Nc2nc3ccccc3o2)cc1OC,-1.5,-29,6,-7%,0,
CC(NCC(=O)NCCc1ccc(S(N)(=O)=O)cc1)c1ccc(F)cc1 (stereo not drawn),-1.0,.,-2,.,.,
O=C1C2C3C=CC(C3)C2C(=O)N1c1cccc2cccnc12 (stereo not drawn),.,-43,-2,0%,-4,
COc1ccc(C(=O)Nc2ccc(C)c(S(=O)(=O)N3CCCCCC3)c2)cc1,11,.,1,-4%,-10,
CCC(=O)Nc1cc(C(=O)OCC(=O)c2ccc(Cl)cc2Cl)ccc1C,1.4,-24,6,-4%,6,
COc1cccc(NC(=O)CN2CCc3ccccc3C2)c1,0.6,.,-8,.,.,
C=CCN1c2ccccc2[C@]23C[C@@H](C(=O)OC)N(C(=O)C4CCC4)C2=NC(C(=O)OC)=C(C(=O)OC)[C@H]13,10,.,-8,-3%,.,
CC1CCN(C(=O)CSc2nnc(-c3ccccc3F)o2)CC1,-1.9,.,28,.,.,
Cc1noc(NS(=O)(=O)c2ccc(N/C=C/C(=O)c3ccccc3)cc2)c1C,-2.8,-7,41,-8%,2,
CC1CCc2c(sc(NC(=O)C(=O)NCc3ccco3)c2C#N)C1 (stereo not drawn),1.4,-2,-2,38%,14,
O=c1[nH]c(SCc2ccc(Cl)cc2)nc2ccccc12,0.4,.,-4,6%,8,
O=C(CCC(=O)N(CC(=O)NC1CCCCC1)Cc1cccs1)Nc1nccs1,-1.4,.,-2,-4%,.,
C/C(=C1/SC(N2CCOCC2)=NC1=O)c1ccc(Cl)cc1,-0.1,-26,-6,2%,-19,
CS(=O)(=O)N(CC(=O)Nc1cccc([N+](=O)[O-])c1)c1ccccc1,-1.6,.,-1,-4%,3,
N=c1c(C(=O)NCc2ccc(F)cc2)cc2c(=O)n3ccccc3nc2n1Cc1cccnc1,i,-18,-2,-6%,-11,
Cc1cc(C)n(-c2nnc(C)n2/N=C/c2ccc(O)cc2)n1,1.9,.,-3,-4%,-3,
O=C(NC1CCCC1)C(c1ccccc1)N(C(=O)c1csnn1)c1ccccc1F (stereo not drawn),1.9,.,4,.,.,
CCOc1ccc(N(CC)S(=O)(=O)c2ccc3c(c2)n(C)c(=O)c(=O)n3C)cc1,-0.6,-33,-1,-6%,-9,
C#CCn1c(-c2cccs2)nc2ccccc21,0.4,.,2,-5%,19,
CCCCC(=O)Oc1c(S(=O)(=O)c2ccc(C)cc2)c(C)nn1C(C)(C)C,10,.,-1,.,.,
O=C(CCCCCNC(=O)c1ccccc1)N/N=C/c1ccco1,0.0,.,9,-2%,4,
O=C(CN1CCN(C(c2ccccc2)c2ccccc2)CC1)N1CCN(c2ccccc2)CC1,4.7,.,84,70%,.,
CCOc1ccccc1NC(=O)CSc1nc2ccccc2nc1N1CCCC1,0.1,.,1,.,.,
COc1ccc(CN(CC2CCCO2)C(=O)CN2C(=O)COc3ccccc32)cc1OC (stereo not drawn),-0.9,-1,-8,-6%,0,
CCC(C)c1ccc(C2C3=C(Nc4nc(N)[nH]c(=O)c42)c2ccccc2C3=O)cc1 (stereo not drawn),2.4,.,-1,-1%,.,
N/C(=N\OC(=O)CCn1cccc(C(F)(F)F)c1=O)c1ccc(Cl)cc1,3.7,.,-4,-7%,.,
O=C1CCC(C(=O)OCc2nnc(-c3ccc(Cl)cc3)o2)=NN1,5.2,.,-3,.,.,
O=C(CCNC(=O)C1CCN(S(=O)(=O)c2ccc(F)cc2)CC1)NC1CC1,-5.7,.,-6,.,.,
CSc1cc(-c2ccc(Cl)cc2)c(C(=O)NN)s1,5.0,-31,10,1%,-17,
COc1c(Cl)cc(-c2noc(C)c2C(=O)NCc2ccc3c(c2)OCO3)cc1Cl,.,-31,2,.,4,Arbovirus anti repeat=-4
Cc1nn(C(C)C(=O)Nc2sc3c(c2C#N)CCCC3)c(C)c1[N+](=O)[O-] (stereo not drawn),-2.2,-42,9,-2%,5,
O=[N+]([O-])c1ccc(-[n+]2nc(-c3ccccc3)nn2-c2ccccc2)cc1,0.5,.,9,.,.,
NC(=S)NC(=O)c1ccccc1,0.0,.,64,29%,.,
Nc1cc(N)nc(SCC(=O)Nc2ccc(Br)cc2Cl)n1,-5.0,.,-15,3%,5,
Cn1cc(/C=N/n2cnc3scc(-c4ccc(Cl)cc4)c3c2=O)c2ccccc21,-1.8,7,2,1%,-8,
COc1ccc(OC)c(NC(=O)c2ccc(Cl)cc2)c1,3.3,.,-1,-1%,-2,
CCOc1ccc(CCNC(=O)c2c(C)noc2C)cc1OCC,-1.6,.,-6,.,.,
Cc1nc(N2CCOCC2)c2c(C)c(C(=O)Nc3ccc(C(F)(F)F)cc3)sc2n1,9.4,.,81,81%,-14,
CCC(COC)NC(=O)CCc1nnc(Cc2c[nH]c3ccccc23)o1 (stereo not drawn),4.6,.,-1,.,.,
COc1ccc(NC(=O)CN2C(=O)NC3(CC(C)CC(C)(C)C3)C2=O)cc1S(=O)(=O)N1CCCCC1 (stereo not drawn),1.0,.,1,.,.,
CCCNC(=O)N1CCCC(C(=O)c2cccc(Cl)c2)C1 (stereo not drawn),0.1,.,-1,-6%,4,
Cc1nnc(SCC(=O)NC2CCS(=O)(=O)C2)n1-c1ccccc1 (stereo not drawn),-0.1,.,-5,-2%,5,
c1cnc2nc(CSc3ncn[nH]3)cn2c1,-1.5,.,1,-5%,5,
COC(=O)COc1ccc2oc(=O)cc(-c3cc4cccc(OC)c4o3)c2c1,-7.2,.,7,.,.,
O=C(COc1ncnc2scc(-c3ccccc3)c12)NC1CCCc2ccccc21 (stereo not drawn),7.5,-24,70,4%,9,
O=S(=O)(Nc1cc(S(=O)(=O)N2CCOCC2)ccc1N1CCCC1)c1cccs1,-1.7,.,6,-4%,7,
Cc1nnc(SCC(=O)NC(=O)NCc2ccco2)s1,-4.5,.,-3,3%,5,
Cc1nccn1CCCN1C(=O)CNC1=S,.,-14,-6,-6%,0,
O=C(COC(=O)c1ccc2c(c1)OCO2)Nc1nc(-c2ccccc2)cs1,2.2,.,9,8%,-1,

# Additional results:
SMILES,RecA splice inh,YopH inh,Mtb bLac sens,Mtb H37Rv,Arbovirus anti,others
O=C(CNc1cccc(Cl)c1)c1ccc(Br)cc1,-1.2,.,3,.,.,
CCCCCC#CCC#CCC#CCC#CCCCC(=O)O,9.5,-21,14,62%,24,
CCSC(=Nc1ccccc1)N1CCOCC1,0.2,.,-9,.,.,
CC1CCCCN1C(=O)CSc1nc2cc3c(cc2c(=O)n1Cc1ccc2c(c1)OCO2)OCO3 (stereo not drawn),0.0,-18,3,1%,-4,
C/C(=N\Nc1cccc(Cl)c1)c1ccc(-n2ccnc2)cc1,.,-37,1,?,-26,
COC(Cc1n[nH]c(=S)n1-c1ccc(Cl)cc1)OC,3.4,-16,-18,-9%,5,
CN1CCN(c2ccccc2/C=C2/C(=O)Nc3ccccc32)CC1,-6.4,.,-16,.,.,
O=C(C1CCC1)N1CCc2cc(S(=O)(=O)NCc3ccco3)ccc21,-4.5,-12,-9,8%,3,
CCCn1c(CNC(=O)c2ccccc2)nc2ccccc21,1.3,-44,-1,-1%,4,
N/C(=N\NS(=O)(=O)c1ccccc1Cl)c1ccccn1,1.2,.,-1,.,.,
O=C(CCc1ccccc1)Nc1cccc(NC(=O)CCc2ccccc2)c1,4.2,-20,-4,0%,0,
CCOc1ccc(C(=O)CCN2CCCCC2)cc1,-4.8,-16,65,-2%,-1,
CC1CCN(S(=O)(=O)c2ccc(NC(=O)Cc3ccccc3)cc2)CC1,-1.4,10,3,17%,-19,
COc1ccc(CCNC(=O)Cn2cnc3c2c(=O)n(C)c(=O)n3C)cc1OC,3.3,-19,4,-16%,1,
CCOC(=O)C(Cc1ccc(N)cc1)N1C(=O)c2ccccc2C1=O (stereo not drawn),3.9,.,3,.,.,
CCn1c(=O)c2cc(C(=O)NCCN3CCOCC3)sc2c2ccccc21,-0.4,-23,-5,.,0,Arbovirus anti repeat=-2
O=C(CCc1nnc(COc2ccccc2)o1)NC1(c2ccccc2)CC1,1.5,.,-4,-2%,11,
COc1cccc(-c2nc(-c3ccc(NC(=O)c4cccs4)cc3)no2)c1,-0.3,-58,17,3%,-1,
C=CCn1c(N)cc(=O)nc1SC(C)C(=O)Nc1cccc2ccccc12 (stereo not drawn),.,-37,-5,-3%,4,
Cn1c(=O)c2c(=O)cc(NNC(=O)C(C)(C)C)[nH]c2n(C)c1=O,-7.4,1,-7,0%,0,
Cc1ccc(N(CCC(=O)O)S(=O)(=O)c2cccc(C(F)(F)F)c2)cc1,1.0,.,-2,-6%,5,
Cc1ccc(OCCOCCNC(C)(C)C)c([N+](=O)[O-])c1,-0.2,-5,11,4%,-1,
NC(N)=N/N=C/c1ccc(OCc2ccc(Cl)cc2)cc1,18,-31,63,67%,-30,
CCCCNC(=O)CCc1c(C)nc2c(c(C)nn2-c2ccccc2)c1C,-2.0,.,0,.,.,
O=C(N/N=C/c1c(O)n(Cc2ccccc2)c(=O)c2ccccc12)c1cccnc1,-51,.,12,11%,-24,
COc1ccc(C(C)=O)cc1CSC(=N)N,-0.1,.,-2,4%,-4,
CC1CCCCN1S(=O)(=O)c1ccc(NC(=O)c2cccs2)cc1 (stereo not drawn),1.8,-12,7,7%,-12,Arbovirus anti repeat=0

# From PubChem BioAssay
